Screening results deposited in PubChem by PCMD.
Calb biofilm kill = mixture kills Candida albicans biofilm cells | 0.02% of 120,000 active | inhibition, % at 7.6 µM | C. albicans biofilm persisters + clotrimazole, fluorescence viability; primary screen in compound mixtures of four per well | AID 1242;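 active = inhibition above 30.3% in the primary screen of four-compound pools, then above 30% when the compound was retested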;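 also: compounds exposed to preformed 24 h biofilms for 48 h; the number belongs to the whole pool; some results filed as inactive read as strong as hits; inactives centre near 12; 0% = biofilm with clotrimazole alone and 100% = kill control; retested singly at about 60 µM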
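Assay system: C. albicans biofilms / Medium: RPMI/MOPS medium, pH 7.0 / Schedule: biofilm formation 24 h, compound exposure 48 h, 37 °C / Measured by: Alamar Blue fluorescence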
* hit, by the source's call. An excerpt; count on the stated rates, not on these rows.

SMILES | Calb biofilm kill
Cc1ccc(-n2[nH]c(C)c(C=Nc3ccc(S(=O)(=O)Nc4nc(C)cc(C)n4)cc3)c2=O)c(C)c1 | 12
CCCOc1ccc(C(=O)C(CN2CCCC2)c2ccccc2)cc1 (configuration not stated) | 18
C/C(=N\NC(=S)Nc1cc(S(=O)(=O)N2CCOCC2)ccc1Cl)c1ccc(N2CCOCC2)cc1 | 4
Cc1cnc(NS(=O)(=O)c2ccc(Cl)cc2)c(Br)c1 | 4
CCc1ccc(-c2csc(NC(=O)C3=NN(c4ccccc4)C(=O)CC3)n2)cc1 | 24
CCc1ccc(C(=O)NNc2cc(Cl)ccc2Cl)cc1 | 22
CC(=O)c1c(N2CCN(c3ccc(F)cc3)CC2)nc(=S)n(-c2ccccc2)c1C | 13
OC(COc1ccc(Cl)cc1)CN1CCN(c2cccc(Cl)c2)CC1 (configuration not stated) | 17
CCCN(CCC)C(=O)CSc1ncccc1C(=O)O | 13
Cc1ccccc1N1CCN(Cc2nc(Cc3ccccc3F)no2)CC1 | 27
CN(CC(=O)Nc1cc([N+](=O)[O-])ccc1Cl)Cc1ccc(Br)cc1 | 5
O=C(Nc1ccccc1F)C1CCCN(S(=O)(=O)c2ccccc2)C1 (configuration not stated) | 13
CCOC(=O)c1cc(NC(=O)c2ccccc2)c(=O)oc1C(F)(F)F | 13
O=C(CNC(=O)c1cccc(F)c1)OCC(=O)N1CCN(C(=O)c2ccco2)CC1 | 0
CC(Nc1ccccc1)c1cc(Cl)ccc1O (configuration not stated) | 9
O=C(Nc1ccc(Br)cn1)C1CCN(S(=O)(=O)c2cccs2)CC1 | 1
O=C(N/N=C/c1ccc([N+](=O)[O-])s1)c1ccccc1 | 17
C/C(=N\NC(=O)c1ccncc1)c1cc2ccccc2oc1=O | 15
CCOC(=O)N/N=C(\C)c1ccccc1OC(F)F | -3
S=c1[nH]nc(-c2cccc(Cl)c2)n1CCN1CCCCC1 | 17

Looked up above:
Calb biofilm kill result of CCCOc1ccc(C(=O)C(CN2CCCC2)c2ccccc2)cc1 (configuration not stated) : 18
Calb biofilm kill result of C/C(=N\NC(=O)c1ccncc1)c1cc2ccccc2oc1=O : 15
Calb biofilm kill result of Cc1ccccc1N1CCN(Cc2nc(Cc3ccccc3F)no2)CC1 : 27
Calb biofilm kill result of C/C(=N\NC(=S)Nc1cc(S(=O)(=O)N2CCOCC2)ccc1Cl)c1ccc(N2CCOCC2)cc1 : 4
Calb biofilm kill result of O=C(N/N=C/c1ccc([N+](=O)[O-])s1)c1ccccc1 : 17

An excerpt from above in order of SMILES length, low to high:
SMILES | Calb biofilm kill
CCCN(CCC)C(=O)CSc1ncccc1C(=O)O | 13
Cc1cnc(NS(=O)(=O)c2ccc(Cl)cc2)c(Br)c1 | 4
O=C(N/N=C/c1ccc([N+](=O)[O-])s1)c1ccccc1 | 17

(listing goes on)
SMILES | Calb biofilm kill
CC(=O)NC(NC(=S)Nc1ccccc1Br)C(Cl)(Cl)Cl (configuration not stated) | 12
COc1ccc(S(=O)(=O)Nc2ccc(O)c(Sc3nc4ccccc4s3)c2)cc1 | -2
O=C(O)C1CCCN(S(=O)(=O)c2ccc(Br)s2)C1 (configuration not stated) | 10
CC1=[N+](C)N(c2ccccc2)C(=O)C1N=C/C=C/c1ccccc1 (configuration not stated) | 23
O=C(/C=C/c1cccc([N+](=O)[O-])c1)Nc1cccc(NC(=O)c2ccco2)c1 | 9
COc1ccc(NC(=S)N2CCN(C(=O)c3ccco3)CC2)c(OC)c1 | 16
O=C(NCc1ccccc1)C1=C[C@@H](C2CC2)C[C@@H](OCc2ccc(CO)cc2)O1 | 20
COC(=O)Cn1c2c(c3cc(C)ccc31)CCCC2NC(C)c1ccccc1 (configuration not stated) | 3
O=Cc1nc(-c2ccc(Cl)cc2)n2ccccc12 | 17
CCN1CCN(Cc2ccc(NC(=O)c3ccc(C)c(NC(=O)C(=O)c4c[nH]c5ccccc45)c3)cc2C(F)(F)F)CC1 | 17
COCCN(CCOC)C(=S)Nc1cc(S(=O)(=O)N(C)C)ccc1C | 10
Clc1cccc(N2CCN(c3ncnc4nc[nH]c34)CC2)c1 | 12
COc1cc(OC)c(OC)cc1/C=N/Nc1ncnc2c1[nH]c1ccc(C)cc12 | 15
CC(=O)c1c(C(C)=O)c(C)n(-c2cccc3cccnc23)c1C | 26
COc1ccc(CCC(=O)Nc2cc([N+](=O)[O-])ccc2OC)cc1 | 9
CCNC(=O)CN1C(=O)NC(Cc2ccccc2)(Cc2ccccc2)C1=O | 11
O=C(/C=C/c1ccc(S(=O)(=O)NCc2ccco2)cc1)NCc1cccc(Cl)c1 | -8
O=C1NC2(CCC3(CC2)OCCO3)NN1c1ccccc1 | 18
N#C/C(=C(/O)COC(=O)COc1ccc(Cl)cc1)c1nc2ccccc2[nH]1 | 10
Cc1c(C(=O)NN)sc(-c2ccccc2)c1C#N | 22

Entries from the list above that have a COOH group (2):
SMILES | Calb biofilm kill
CCCN(CCC)C(=O)CSc1ncccc1C(=O)O | 13
O=C(O)C1CCCN(S(=O)(=O)c2ccc(Br)s2)C1 (configuration not stated) | 10

The list goes on:
SMILES | Calb biofilm kill
Cc1ccc(-c2nn(-c3ccccn3)c(=O)c3ccccc23)cc1 | 0
COc1ccc(-c2ccnc(SCC(=O)c3ccc(Br)cc3)n2)cc1 | 3
COCC(=O)Nc1cc(C(=O)OC)cc(C(=O)OC)c1 | 16
COC(=O)Cc1ccc(NC(=S)N2CCCCC2C)cc1 (configuration not stated) | 1
CCN(CC)C(=O)CSc1nnc2nnc3cc(Cl)ccc3n12 | 10
COc1ccc(Nc2nc(-c3cccc([N+](=O)[O-])c3)nc3ccccc23)cc1 | 6
CN(C)c1ccc(-c2ccc([C@H]3[C@@H]4C=CCC[C@@]4(C)C(=O)N3Cc3ccccc3)c(F)c2)cc1 | 15
O=C(Cn1nnc2ccccc21)NNC(=S)NC1CCCCC1 | 11
CCc1nc(SCC(=O)N2CCN(c3ccccc3)CC2)c2c(=O)n(C)c(=O)n(C)c2n1 | 10
CC(=O)Nc1ccc(NC(=O)C(C)OC(=O)c2ccccc2C(=O)c2ccc(Cl)c([N+](=O)[O-])c2)cc1 (configuration not stated) | 8
CC(=O)Nc1ccc(S(=O)(=O)N2CCOCC2)cc1 | 5
COC(=O)c1cnn(-c2ccc(F)cc2F)c1/C=N/NC(N)=S | 15
O=C(CCl)Nc1ccccc1C(=O)NCc1ccccc1 | -10
CC(=O)c1c(C)nc2sc3c(=N)n(N)cnc3c2c1-c1ccc(Cl)cc1 | -12
O=c1c2ccccc2nc2c3ccccc3cnn12 | 3
CCN1C(=O)/C(=C\N(C)C)c2ccccc21 | 11
COc1cc(NC(=S)NCCc2ccc(S(N)(=O)=O)cc2)c(OC)cc1Cl | 10
CCOC(=O)N1CCN(C(=O)c2ccc(SC)cc2OC)CC1 | 5
Cn1nc(C(C)(C)C)cc1C(=O)NNC(=O)c1cccc(Cl)c1 | 42
Nn1cnc2c(c1=O)C1(CCCCC1)Cc1ccccc1-2 | 22
C/C(=N\O)c1cc(Cl)cc(Cl)c1O | 17
COc1ccc(-c2nc(CCl)cs2)cc1OC | 6
O=C1CCCC2=C1C(c1ccc(O)c(O)c1)Nc1ccc3ncccc3c12 (configuration not stated) | 24
O=C(/C=C/c1ccccc1)N1CCC(N2CCC(C(=O)N3CCOCC3)CC2)CC1 | 15
O=[N+]([O-])c1cc(S(=O)(=O)N2CCCC2)ccc1N/N=C/c1ccncc1 | 15
O=C1C2CC=C(Cl)CC2C(=O)N1CCC[n+]1cccc2ccccc21 (configuration not stated) | 11
O=C(Nc1nnc(-c2ccco2)o1)c1cccc(N2C(=O)CCC2=O)c1 | 5
[O-][N+]12CCCCC1CCCC2CO (configuration not stated) | 14
CN1CCN(c2ccc([N+](=O)[O-])cc2C(=O)c2ccccc2)CC1 | 18
Cn1c(SCC(=O)NC2CCCCC2)nnc1-c1cccc(N)c1 | 17
Cc1cc(F)ccc1S(=O)(=O)Nc1ccccc1C(=O)NCc1ccccn1 | 23
O=C(N/N=C/c1cccnc1)c1ccco1 | 13
CCOC(=O)c1c(C)[nH]c(N=Nc2cccc(OC)c2)c1C | 6
COc1ccc(NC(=O)c2ccc3snnc3c2)cc1 | 9
Cc1c(N(C(=O)c2ccccn2)C2(C(=O)NC3CCCC3)CCCCC2)c(=O)n(-c2ccccc2)n1C | 5
CN(C)CCN(Cc1ccc(Cl)cc1)c1ccccn1 | 7
CSc1cccc(NC(C)C(=O)NCc2ccccc2)c1 (configuration not stated) | 14
Cc1cccc(NC(=O)CN2C(=O)COc3ccc(Cl)cc32)c1 | 12
COCCN(C(=O)CSc1nnc2cc(C)c3ccccc3n12)c1c(N)n(Cc2ccccc2)c(=O)[nH]c1=O | 16
C/C(CCc1ccccc1)=N\NC(=O)c1ccc(CN2CCOCC2)cc1 | 20
Cc1cc(C)cc(N(CC(=O)NCc2ccco2)C(=O)c2snc(C(N)=O)c2N)c1 | 14
Cc1nn(CC(=O)Nc2ccc(N(C)C)cc2)c(C)c1[N+](=O)[O-] | 11
N#CC(c1ccc(Cl)cc1)c1cccc(Cl)n1 (configuration not stated) | -10
COc1cc(OC)cc(C(=O)Nc2ccc(CN3CCCCC3)cc2)c1 | 24
CCOCCCNC(=S)N1CCCN(c2nc3cc(C)ccc3cc2C#N)CC1 | 0
COc1ccc(NC(=O)Nc2ccc(Br)c(C)c2)cc1 | 7
Cc1cc(=O)[nH]c(SCC(=O)c2ccc3c(c2)NC(=O)CO3)n1 | 12
COC(=O)Cc1c(O)ccn(Cc2ccc(OC)c(OC)c2)c1=O | 6
CCOCCCn1c(=NC(C)=O)c(C#N)cc2c(=O)n3ccccc3nc21 | -2
COc1cc(C(=O)NCC(c2cccs2)N(C)C)cc(Cl)c1OC(C)C (configuration not stated) | 19
CCN(CC)S(=O)(=O)c1cccc(-c2n[nH]c(=S)n2CC(C)C)c1 | 14
CCC(C)NC(=O)C1(NC(=O)Nc2ccccc2)CCCCC1 (configuration not stated) | 8
Cc1ccc(S(=O)(=O)N(C)CC(=O)N2CCCC2)cc1 | 16
CCn1c(SCC(=O)Nc2cc(S(=O)(=O)N3CCOCC3)ccc2OC)nnc1-c1ccncc1 | 9
CN(C)c1ccc(C(=O)c2ccccc2C(=O)O)cc1[N+](=O)[O-] | 20
CCOc1ccc(C(=O)NNC2CC(=O)N(Cc3ccc(Cl)cc3)C2=O)cc1OC (configuration not stated) | 2
Cc1[nH]c2ccc(F)cc2c1CCN(Cc1ccco1)C(=S)NC(C)(C)C | 29
O=C(Cc1cccs1)Nc1cccc(C(=O)Nc2ccc(C(=O)O)cc2)c1 | 6
O=C(Nc1nnc(Cc2ccc([N+](=O)[O-])cc2)s1)Nc1ccccc1F | 7
CC(=O)Nc1ccc(NC(=O)CSc2nnc3ccc(-c4ccc(F)cc4)nn23)cc1 | 14
The results go on.
SMILES | Calb biofilm kill
COC(=O)c1ccc(CN2C(=O)NC(CC(C)C)C2=O)cc1 (configuration not stated) | 19
Cn1c(N=NC(=O)c2ccccc2)c(O)c2ccccc21 | 18
CC(=O)N/C(=C\c1cccs1)C(=O)O | 15
CN(C)c1ccc(/C=C2/NC(=O)NC2=O)cc1 | 23
Cc1ccc(C)c(NS(=O)(=O)c2ccc(OCC(=O)NCC3CCCO3)cc2)c1 (configuration not stated) | 17
CC(Oc1ccc(Cl)cc1Cl)C(=O)Nc1ncccn1 (configuration not stated) | 7
COc1ccc(-c2cc(C(=O)N3CCc4ccccc4C3)no2)cc1 | 11
COc1cc(C(=O)Nc2nc3ccc(S(C)(=O)=O)cc3s2)cc(OC)c1C | 14
N/C(=N\OC(=O)c1cc([N+](=O)[O-])ccc1Cl)c1ccccn1 | 25
Cc1ccccc1C(=O)Oc1ccccc1C(=O)N1CCOCC1 | 12
CCOC(=O)N1CCN(Cc2nc(Cc3cccc(F)c3)no2)CC1 | 8
COc1ccc(C2C(C#N)=C(C)NC(C)=C2C#N)c(OC)c1 | 14
COc1ccc(CCNC(=O)CN(c2cccc([N+](=O)[O-])c2)S(C)(=O)=O)cc1OC | 11
Cc1ccsc1/C=N/NC(=O)Cc1cc(=O)[nH][nH]1 | 12
CCS(=O)CC(=O)Nc1c(-c2ccccc2)oc2ccccc2c1=O (configuration not stated) | 16
Cc1ccc(C(=O)N[C@H](C(=O)Nc2cc(Cl)cc(Cl)c2)C(C)C)cc1 | 7
Cc1cc(NC(=O)CSCc2ccccc2)no1 | 4
CC(C)CC1c2[nH]c3ccccc3c2CCN1CCCn1cccn1 (configuration not stated) | 0
Fc1ccc(Nc2nc(-c3cccnc3)cs2)cc1 | 19
O=c1c2c3c(sc2nc(N2CCNCC2)n1-c1cccc(Cl)c1)CCCCC3 | 31
Cc1ccc(O)c(C2=Nc3ccccc3C2(C)C)c1 | 13
Cc1cc(N2C(=O)C(O)=C(C(=O)c3cccs3)C2c2cccc(Br)c2)no1 (configuration not stated) | 17
COc1ccc(N2CC(O)(c3ccc(OC(F)F)cc3)[N+]3=C2CCCC3)cc1 (configuration not stated) | 22
c1ccc(Cn2c(-c3ccccc3)nc3nc4ccccc4nc32)cc1 | 17
COc1ccc(-c2ccnc(SCC(=O)c3ccc(Cl)cc3)n2)cc1 | -10
Cc1csc(/C(=N/OC(=O)c2ccco2)C(N)=O)n1 | 11
Clc1nc(Oc2ccccc2)nc(-c2cn(-c3ccccc3)c3ccccc23)n1 | 22
O=C(CCC1CCCC1)N[C@@H](Cc1ccc(O)cc1)C(=O)O | 18
CCN1CCN(C(c2cccs2)C(C)NS(=O)(=O)c2ccccc2)CC1 (configuration not stated) | 17
COc1ccc(C(=O)N[C@H](C(=O)NCc2cccs2)C(C)C)cc1 | 15
Cc1nn(C)cc1CNC(=O)COc1ccc(Cl)cc1Cl | 8

Some of the entries so far, field by field:
CC(=O)NC(NC(=S)Nc1ccccc1Br)C(Cl)(Cl)Cl (configuration not stated)
- Calb biofilm kill: 12

CC(=O)N/C(=C\c1cccs1)C(=O)O
- Calb biofilm kill: 15

O=C(CNC(=O)c1cccc(F)c1)OCC(=O)N1CCN(C(=O)c2ccco2)CC1
- Calb biofilm kill: 0

CN(C)c1ccc(-c2ccc([C@H]3[C@@H]4C=CCC[C@@]4(C)C(=O)N3Cc3ccccc3)c(F)c2)cc1
- Calb biofilm kill: 15
